High-throughput results from PubChem BioAssay.
PINK1 modulator: PINK1 expression modulation. Potency, µM (highest dose often 76.6 µM), without a hit: top-dose activation (PINK1 increase), hits mostly activators. 410,000 tested, 0.2% active. PINK1 immunofluorescence, high-content cytometry, 24 h; active = well fitted activation curve with a large enough effect; inconclusive = small, poorly fitted or top-dose-only effect; inactive = flat fitted curve, though single readings scatter; cell line not stated here;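 also: potency is read from the fitted curve at half-maximal effect; % of control where 0% means no effect; nearly all actives have a fitted effect of over 65% in size; a mitochondrial uncoupler was the plate control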
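Readout is PINK1 immunofluorescence, quantified alongside mitochondrial, cell and nuclear markers by laser-scanning microplate cytometry. Cells from a stable line were exposed to compound titrations (5 concentrations) for 24 hours, with CCCP controls.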
TRPV1 potentiator: enhances activation of the human vanilloid receptor TRPV1; Q8NER1; TRPV1-expressing cells, Fluo-8 calcium influx, capsaicin EC20 potentiation; host cell line not named in the record; control for the full effect not named in the record; potentiation, % at 8.33 µM; 320,000 tested, 0.02% active; active means potentiation above 80%; inconclusive means 30% to 80%; inactive means below 30%; also: 0% is about no effect
Target sequence (Q8NER1 whole entry, looked up): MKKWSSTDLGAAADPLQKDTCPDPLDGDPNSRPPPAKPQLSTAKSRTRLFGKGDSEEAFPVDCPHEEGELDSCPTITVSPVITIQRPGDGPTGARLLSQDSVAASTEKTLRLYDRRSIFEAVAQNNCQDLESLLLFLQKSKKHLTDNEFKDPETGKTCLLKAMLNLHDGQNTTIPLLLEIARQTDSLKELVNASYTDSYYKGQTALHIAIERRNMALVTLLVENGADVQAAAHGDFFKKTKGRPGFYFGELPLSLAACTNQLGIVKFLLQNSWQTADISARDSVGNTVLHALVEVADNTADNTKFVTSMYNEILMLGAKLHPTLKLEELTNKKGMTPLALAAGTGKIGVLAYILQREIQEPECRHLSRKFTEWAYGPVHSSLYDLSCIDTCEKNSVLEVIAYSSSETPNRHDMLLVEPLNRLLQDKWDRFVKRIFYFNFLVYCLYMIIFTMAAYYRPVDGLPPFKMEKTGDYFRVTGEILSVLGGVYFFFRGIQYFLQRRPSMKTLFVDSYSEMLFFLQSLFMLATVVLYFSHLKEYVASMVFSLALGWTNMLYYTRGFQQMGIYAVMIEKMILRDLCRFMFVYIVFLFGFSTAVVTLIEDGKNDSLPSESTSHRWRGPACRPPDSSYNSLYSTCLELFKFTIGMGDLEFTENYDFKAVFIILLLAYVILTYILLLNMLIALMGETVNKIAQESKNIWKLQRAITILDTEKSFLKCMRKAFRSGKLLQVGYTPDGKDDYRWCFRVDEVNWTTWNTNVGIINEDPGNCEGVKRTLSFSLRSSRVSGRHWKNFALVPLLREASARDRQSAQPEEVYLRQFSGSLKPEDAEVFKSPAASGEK
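Fluo-8 calcium influx in TRPV1-expressing cells, kinetic read (ex 480/em 520 nm). Compound added and read 3 min for agonist activity, followed by capsaicin at EC20 final and 2 min further read for enhancement.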
Six1-Eya2 inh: Six1/Eya2 interaction inhibition; Q15475+O00167; AlphaScreen GST-Six1/His-Eya2 binding, biochemical; stronger effect = lower value; control for the full effect not named in the record; activity change, % (test concentration not listed); 360,000 tested, 0.56% active; AID 651725; in the data active = activity change below about -65%; inconclusive = about -30% to -65%; inactive = above about -30%; also: % is scaled to controls: 0 for no effect and ±100 for the full control effect; compound concentration not given in the record
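Homogeneous AlphaScreen proximity assay pairing GST-Six1 with His-tagged Eya2 (added as 5X mix: 250 nM and 500 nM) in 50 mM Tris pH 8.0, 300 mM NaCl, 1 mM TCEP. Glutathione donor and nickel acceptor beads; 1 h, 37 °C, dark.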
CtBP-E1A blk: CtBP/E1A binding inhibition; AlphaScreen GST-E1A/His-CtBP binding, 1536-well; stronger effect = lower value; control for the full effect not named in the record; activity change, % (concentration not given with the values); 340,000 tested, 0.49% active; in the data active means activity change below about -65%; inconclusive means about -30% to -65%; inactive means above about -30%; also: % is scaled to controls: 0 for no effect and ±100 for the full control effect
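AlphaScreen with 125 nM GST-E1A and 125 nM His-CtBP (5X stocks) in Tris pH 8.0, 300 mM NaCl, BSA, Tween 20, TCEP. Compounds preincubated 2 h at 37 deg C, then glutathione donor/nickel acceptor beads added for 1 h at 37 deg C in dark.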
Sfp inh: blocks B. subtilis Sfp PPTase activity. 310,000 tested, 3.5% active. Q9F4F7. Potency, µM, without a hit: max response, negative = inhibition, actives largely listed as inhibitors. AID 1490. Biochemical Sfp PPTase activity, qHTS; active = well fitted inhibition curve with a large enough effect; inconclusive = small, poorly fitted or top-dose-only effect, or another doubt; inactive = no such curve, though single readings can be large or run the other way;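 also: the enzyme is Sfp with the accession as filed and its product quenches rhodamine fluorescence; potency is read from the fitted curve at half-maximal effect; 0% = enzyme reaction without inhibitor and -100% = no enzyme wells; top concentration of the series not given in the record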
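Sfp 15 nM + cpd, 15 min RT; start w/ rhodamine-CoA 5 uM, BHQ-2-YbbR 12.5 uM (final); 50 mM Hepes pH 7.6, 10 mM MgCl2, 0.01% NP-40, 0.01% BSA; read 525/598 nm at 0 and 30 min.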
D2 potentiator: potentiates the human D2 dopamine receptor allosterically; potentiation, % (test concentration not listed); 360,000 tested, 0.23% active; DiscoveRx D2 beta-arrestin cells, luminescence, 90 min; 100% = 57 uM dopamine signal; P14416; active = potentiation of 50% or more; inconclusive = 30% to 50%; inactive = 30% or less;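 also: compound concentration not given in the record; tested on top of an EC20 dose of dopamine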
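D2 cells co-treated with compound plus 50 nM dopamine (EC20) for 90 min at 37 deg C to detect potentiation. Beta-arrestin recruitment was read as enzyme-fragment luminescence after 1 h at ambient temperature. Full response was set by 57 uM dopamine.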
D2 ag: agonists of human D2 dopamine receptor (beta-arrestin). P14416. DiscoveRx PathHunter D2 beta-arrestin, luminescence, 90 min; 100% = 57 uM dopamine signal. activation, % (no concentration beside the values). 360,000 tested, 0.084% active; in the data active = activation above about 40%; inconclusive = about 15% to 40%; inactive = below about 15%; also: compound concentration not given in the record; the text of the record calls up to 30% inactive
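Agonist mode: compounds alone added to overnight-plated D2 PathHunter cells for 90 min at 37 C, with 57 uM final dopamine (EC100) defining full response. Beta-arrestin recruitment detected by chemiluminescent reagent, read after 1 h at ambient temperature.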
* hit, by the source's call; ? = inconclusive; . = no result given; [ ] = dose if it differs, or a comment.

SMILES	PINK1 modulator	TRPV1 potentiator	Six1-Eya2 inh	CtBP-E1A blk	Sfp inh	D2 potentiator	D2 ag
CN(C)CCn1c2c(c(SCC(=O)Nc3ccc4c(c3)OCCO4)nc1=O)CCCC2	0.5%	9	-5	-4	.	-17	1.3
Cc1ccc(CC(=O)N2CCN(S(=O)(=O)c3ccccc3)CC2)cc1C	-2.4%	-5	11	-14	.	-8	-0.6
CCOC(=O)CN(C(=O)c1snc(C(N)=O)c1N)C(C(=O)NCCC(C)C)c1ccc(F)cc1 (stereo not drawn)	1.7%	-8	7	.	11%	-10	-2.9
O=C1c2ccccc2S(=O)(=O)c2cc(C(=O)N3CCN(c4ccccc4)CC3)ccc21	-0.7%	.	-27	-19	.	6	3.7
O=C(C1CCN(c2nnc(-n3cccc3)s2)CC1)N1CCOCC1	2.5%	-4	?	-7	3%	-6	-2.2
COc1ccc(OCC(O)Cn2c(N)nc3c2c(=O)[nH]c(=O)n3C)cc1 (stereo not drawn)	7.4%	-1	1	3	17%	2	7.4
CC1N(C)c2cc(NC(=O)c3ccco3)ccc2C1(C)C (stereo not drawn)	2.0%[38.3 µM]	-10	-29	-13	-24%	2	2.7
COc1cc(C[C@@H](C)[C@@H](C)Cc2ccc(O)c(OC)c2)ccc1O	0.3%	.	1	-26	.	3	2.2
O=C(c1cc2ccccc2o1)N1CCN(c2ncccn2)CC1	1.3%	.	-5	8	.	-3	3.3
CC(C)CC(=O)NC(=S)Nc1ccccc1N1CCCC1	1.6%	-24	-29	.	5%	-24	-6.8
C=CCNC(=O)c1c(-c2c(F)cccc2Cl)noc1C	-0.7%	-2	-1	4	30%	-8	-4.0
C[C@]12C(=O)N(c3ccc(Cl)cc3)C(=O)N1[C@H]1c3ccccc3OC[C@@H]1[C@H]2c1ccccc1	2.6%	-17	-12	.	11%	-7	-2.0
CC12CCC(=O)N1C(C(=O)N1CCN(c3ccc(C(F)(F)F)cc3[N+](=O)[O-])CC1)CS2 (stereo not drawn)	-0.6%	6	0	-2	3%	3	-2.3
O=C(O)c1ccc(N/N=C/C=C/c2ccccc2)cc1	-1.0%	13	6	-6	4%	-6	-0.3
O=C(Nc1nccs1)c1cccc(N2C(=O)c3cccc4c([N+](=O)[O-])ccc(c34)C2=O)c1	4.3%	-3	2	-2	-22%	75*	14
Nc1ccccc1C(=O)NNc1c2ccccc2nc2ccccc12	1.1%	11	?	.	-9%	-31	-8.7
COCCNC(=O)CN1C(=O)NC2(CCCc3ccccc32)C1=O (stereo not drawn)	-3.2%	15	27	-14	15%	-2	0.4
Cn1c(C(=O)c2ccncc2)cc2ccccc21	-0.9%	-26	7	.	5%	-54	-8.6
COc1ccc(C(=O)CN2C(=O)NC3(CCCCC3)C2=O)cc1OC	0.7%	7	1	-4	13%	-4	3.2
O=C1Nc2ccccc2S/C1=C/Nc1cccc(Cl)c1	.	-2	-7	-6	-1%	-4	8.0
O=C1C2=C(Nc3ccccc3SC2c2ccco2)c2ccccc21 (stereo not drawn)	2.3%	-10	?	?	?	-40	-4.1
COc1ccc(OC)c(NC(=O)CCNC(=O)Cn2ccc3ccccc3c2=O)c1	0.7%	-4	0	1	11%	-8	-3.9
Cc1cc(C(F)(F)F)nn1CC(=O)NNC(=S)Nc1cccc(Cl)c1	2.6%[38.3 µM]	9	3	6	5%	-7	0.3
CCC(c1c(C)n(C)n(-c2ccccc2)c1=O)c1c(C)n(C)n(-c2ccccc2)c1=O	-3.8%	5	-1	9	14%	-10	-4.9
O=C(c1cc2nc(-c3ccco3)cc(C(F)(F)F)n2n1)N1CCCCCC1	.	-21	7	0	56µM*	-7	1.4
CC(C)(C)CC(=O)NC(=S)N1CCCCCC1	-3.1%[38.3 µM]	12	3	19	22%	-3	-2.0
COc1ccc(NC(=O)CSc2nnc(C)n2Cc2ccccc2)cc1	-1.8%	5	3	-10	14%	-20	-1.3
CC(C)(O)C#Cc1ccc(C(=O)NCc2cccs2)s1	-0.5%	.	19	0	14%	-8	-3.9
COC(=O)[C@]1(Cc2ccccc2)N[C@H](CN(C)C(C)=O)[C@@H]2C(=O)N(C)C(=O)[C@@H]21	1.7%	.	9	5	.	-2	-3.0
Nc1cc2c(cc1[N+](=O)[O-])OCCOCCOCCO2	1.4%	-9	-13	0	12%	2	3.8
CN(CC(=O)NCCCN1CCOCC1)S(=O)(=O)c1cc(Cl)ccc1Cl	1.9%	1	5	-5	13%	3	-0.3
Clc1ccc(OCCn2c(-c3ccco3)nc3ccccc32)cc1	.	-9	-17	-3	?	-14	-3.6
OCc1ccnc(Cl)c1	2.8%	4	10	-4	24%	-16	-0.4
O=C(CCSc1ccccc1)NC1CCCCCC1	0.1%	-21	10	26	18%	-10	2.0
COC(=O)C1CCN(C(=O)/C(C)=C\c2ccccc2)CC1	0.5%	0	2	4	-1%	-1	-2.2
O=C(COc1ccc(Cl)cc1[N+](=O)[O-])NC1CCCCC1	3.9%	-5	-6	-6	11%	5	1.8
COc1ccc(C2Nc3ccccc3C(=O)N2NS(C)(=O)=O)c(OC)c1 (stereo not drawn)	2.7%	-2	-6	.	3%	-11	-1.2
COc1ccc(-c2noc(-c3csc([C@@H]4C[C@H](O)[C@@H](CO)O4)n3)n2)cc1OC	1.3%	.	3	-12	.	-3	3.9
O=C(CSc1ncccn1)NCc1cccs1	-0.9%	-6	-2	-2	20%	-7	0.5
COCCCn1c(=O)c2ccccc2n(CC(=O)NC2CCCCC2)c1=O	-1.5%	0	-1	3	8%	-4	0.8
COCCNc1ncnc2c1cnn2Cc1ccc(Cl)cc1	6.8%	-31	5	1	16%	6	1.6
O=C(NCc1ccccc1)c1cc[n+]([O-])cc1	0.6%	-1	3	2	9%	-13	1.1
COc1cccc(CN2CCNC(=O)C2CC(=O)NC2CCCCCCC2)c1 (stereo not drawn)	10%	0	0	2	2%	-16	-0.2
OCC[C@H]1C[C@H](O)[C@@H](O)[C@]2(CCc3ccccc3O2)O1	0.5%	-22	2	-3	.	-6	-0.3
CC(=O)/C(=C\N(C)C)Sc1ccc(C)cc1	1.5%	6	4	5	11%	-2	-3.3
CCOC(=O)[C@@H]1[C@H]2COc3cc(OC)ccc3[C@@H]2N2C(=O)N(c3ccc(OC)cc3)C(=O)[C@]12C	0.0%	-9	-5	-1	2%	-10	-1.2
NC(=O)C1CCN(C(=O)C23CC4CC(CC(C4)C2)C3)CC1	-2.3%	-4	0	-2	11%	8	0.2
Cc1cc(C(=O)N/N=C/c2ccc(C)o2)c2ccccc2n1	12%	2	-10	4	-25%	-1	-4.3
O=C(NCc1ccncc1)C(=O)NCC1OCCN1S(=O)(=O)c1ccc(Br)cc1 (stereo not drawn)	-0.9%	-13	6	-7	4%	13	1.3
N=c1c(C(=O)NC2CCCCC2)cc2c(=O)n3ccccc3nc2n1Cc1cccnc1	0.2%	-3	-2	-10	15%	-13	-1.9
O=[N+]([O-])c1ccc(S(=O)(=O)CC(CN2CCCCC2)N2CCCCC2)cc1 (stereo not drawn)	1.7%	-1	-9	.	0%	-2	8.8
O=C(CCc1c[nH]c2ccccc12)OCC(=O)c1ccccc1	2.3%	.	-11	-2	.	-14	-2.7
COC(=O)n1c(=O)oc2cc(S(=O)(=O)N3CCOCC3)ccc21	1.1%	-4	6	5	10%	12	-0.1
O=C(CSCc1cc(=O)[nH][nH]1)Nc1ccc(F)cc1	-0.6%	15	4	26	-25%	-4	0.5
CC(=O)c1cccc(N(C(=O)c2ccco2)C(C(=O)NC2CCCC2)c2cccs2)c1 (stereo not drawn)	3.1%	-1	-3	5	5%	-9	-2.4
CCc1nnc(NC(=O)c2ccc(S(=O)(=O)NC3CCCCC3)cc2)s1	8.0%[38.3 µM]	7	10	13	14%	17	3.5
COCCn1c(SCCCc2ccccc2)nc2c1c(=O)[nH]c(=O)n2C	-2.5%	-6	0	1	-20%	0	-2.8
CCCCCC(=O)N1C[C@@H](n2cc(COC(=O)c3ccccc3)nn2)[C@H](O)C[C@@H]1c1ccc(C)cc1	1.8%	.	-5	6	.	-1	-3.5
O=C(COC(=O)/C=C/c1cccs1)Nc1cccc(S(=O)(=O)N2CCOCC2)c1	0.8%	-10	-3	-1	20%	-7	-3.3
CCOC(=O)C(C)Oc1ccc2c(C)cc(=O)oc2c1C(C)=O (stereo not drawn)	2.8%[38.3 µM]	-8	4	-10	-1%	2	0.6
COc1ccc(CN2CC(COCc3ccccc3)Oc3ccccc3S2(=O)=O)cc1 (stereo not drawn)	1.0%	.	3	6	.	-3	-1.0

Profiles, quoted from the list:
`NC(=O)C1CCN(C(=O)C23CC4CC(CC(C4)C2)C3)CC1` in the list: PINK1 modulator: -2.3%; TRPV1 potentiator: -4; Six1-Eya2 inh: 0; CtBP-E1A blk: -2; Sfp inh: 11%; D2 potentiator: 8; D2 ag: 0.2
`CC(=O)c1cccc(N(C(=O)c2ccco2)C(C(=O)NC2CCCC2)c2cccs2)c1` (stereo not drawn) in the list: PINK1 modulator: 3.1%; TRPV1 potentiator: -1; Six1-Eya2 inh: -3; CtBP-E1A blk: 5; Sfp inh: 5%; D2 potentiator: -9; D2 ag: -2.4

Not a hit list. About 3.7% of those tested had a hit in this group.
